HCMV UL50-53 inh – inhibitors of HCMV UL50-UL53 interaction, biochemical, HTRF; HCMV UL50-UL53 nuclear egress complex (human cytomegalovirus); 190,000 tested, 0.15% active; normalized percent inhibition; inhibition, % (no concentration beside the values);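 active = both replicates at 50% or more, plus weaker picks with an unusually low signal ratio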;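 note: stock transfer was 100 nL into about 20 µL; 0% = negative control wells and 100% = wells with untagged competitor protein; inactives centre near -12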
GIV-Gai inh – inhibitors of GIV peptide binding to Galpha-i3, primary screen, biochemical, fluorescence polarization, FITC-GIV GBA peptide, rat Galphai3 | Guanine nucleotide-binding protein G(i) subunit alpha-3 (Rattus norvegicus), P08753 | 90 min; stronger effect = lower value; scaled: aluminum fluoride 0%, vehicle 100% | percent of control (FP), % (concentration not given with the values) | 210,000 tested, 0.42% active;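 active = replicate mean at 85% of control or lower, very high polarization wells dropped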;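 note: wells of about 15 µL received 100 nL stock; the first replicate is given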
Target sequence (P08753 whole entry, looked up): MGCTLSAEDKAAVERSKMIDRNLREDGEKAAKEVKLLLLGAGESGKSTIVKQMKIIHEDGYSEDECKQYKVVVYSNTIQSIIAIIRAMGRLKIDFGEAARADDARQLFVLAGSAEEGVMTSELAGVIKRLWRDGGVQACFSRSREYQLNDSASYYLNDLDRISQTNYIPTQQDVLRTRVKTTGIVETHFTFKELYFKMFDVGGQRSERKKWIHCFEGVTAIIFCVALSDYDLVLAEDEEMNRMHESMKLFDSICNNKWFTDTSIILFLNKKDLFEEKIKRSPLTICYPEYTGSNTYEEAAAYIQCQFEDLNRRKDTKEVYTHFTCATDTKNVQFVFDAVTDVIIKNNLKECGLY
Sa growth 42C – S. aureus growth inhibition at 42 and 30 °C, primary screen, LtaS inhibitor project, RN4220, two temperatures; OD600, 20 h, 42 °C; stronger effect = lower value; relative growth, % (concentration not given with the values); 170,000 tested, 0.53% active;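 active = growth at 42 °C up to 50% and 20 or more points under that at 30 °C, or under 10% at both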;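 note: 300 nL library stock went into each well; scaled to the means of positive and negative controls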
Sa growth 42C second temp – further read-out of Sa growth 42C, marked with its call; relative growth, %; measured here: growth at 30 °C;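 optical density after 20 h as mean of two plates; 100% = untreated growth and lower means inhibition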
Active calls of the source: *; . = no result given; & = joins results of further samples.

SMILES	HCMV UL50-53 inh	GIV-Gai inh	Sa growth 42C	Sa growth 42C second temp
O=C(Nc1ccc(-c2nc3ncccc3o2)cc1)c1sc2ccccc2c1Cl	-20	105	.	.
O=C(O)CCNCc1ccccc1	-17	.	109	93
COC(=O)CSc1ncnc2ccsc12	-18	102	87	80
CN(CCO)c1c[nH]c(=O)[nH]c1=O	-39	104	95	90
C/C=C/C(=O)Nc1ccccc1Br	-10	103	92	99
O=c1c2cc(-c3ccccc3)sc2[nH]c(=S)n1Cc1ccco1	-2	.	31	20
Clc1cccc(-n2ncc3c(NCCCn4ccnc4)ncnc32)c1	.	99	41	5
Cc1cccc(C(=O)NN)c1	.	94	102	82
Cc1nc(C)c(CCNC(=O)C2CCCCC2)s1	-9	109	107	91
CC1=C(C(=O)OC(C)C)C(c2ccc(C)o2)C2=C(CC(c3cccs3)CC2=O)N1 (stereo unspecified)	-12	99	94	83
CCOC(=O)N1CCN(CC(=O)Nc2ccc(F)c(F)c2F)CC1	-19	.	71	85
CC1=C(C(=O)OCC(C)C)Sc2ccc(C(F)(F)F)cc2N1	-6	.	96	88

Sorted by the number under Sa growth 42C second temp (descending): three of the compounds above.
SMILES	GIV-Gai inh	Sa growth 42C second temp
Cc1nc(C)c(CCNC(=O)C2CCCCC2)s1	109	91
O=c1c2cc(-c3ccccc3)sc2[nH]c(=S)n1Cc1ccco1	.	20
Clc1cccc(-n2ncc3c(NCCCn4ccnc4)ncnc32)c1	99	5

(listing goes on)
SMILES	HCMV UL50-53 inh	GIV-Gai inh	Sa growth 42C	Sa growth 42C second temp
Cc1cc2nnc(SCC(=O)NC34CC5CC(CC(C5)C3)C4)n2c2ccccc12	-21	100	.	.
CC(NC(=O)c1cnc2n(c1=O)CCS2)C12CC3CC(CC(C3)C1)C2 (stereo unspecified)	-29	106	92	83
CCOc1ccccc1CNC(=O)c1cc(-c2ccc(OC)cc2)nc2ccc(C(C)C)cc12	.	101	106	82
Cc1ccc(-c2nnc(C3CCN(S(=O)(=O)c4ccc(C)cc4C)CC3)o2)cc1	-13&-27	103&97	91	90
Cc1nc(-c2ccc(F)cc2)sc1CCNS(=O)(=O)c1ccccc1F	-8	100	.	.
O=C(Nc1ccc(SC(F)F)cc1)c1ccc(CO)cc1	0	.	91	93
Cc1ccc2c(c1Br)/C(=N/N1C(=O)c3ccccc3C1=O)C(=O)N2	-54	.	92	48
O=C(C1CCCN1S(=O)(=O)c1cccc2cccnc12)N1CC=C(c2ccccc2)CC1 (stereo unspecified)	-24	100&98	99	86
CCCCn1c(=NC(=O)C(C)(C)Oc2ccc(Cl)cc2)c(C(=O)OCC)cc2c(=O)n3ccccc3nc21	3	104	112	94
O=C(C(Sc1ccccc1)c1ccccc1)N1CCCc2ccccc21 (stereo unspecified)	0	.	106	100
Nc1c(S(=O)Cc2ccc(Cl)cc2)sc2nc3c(cc12)CCCC3 (stereo unspecified)	4	104	95	94
Cn1c(SCC(=O)Nc2ccccc2F)nc2c([nH]c3ccccc32)c1=O	.	111	113	84
Cc1ccn2c(NC(=O)c3ccc([N+](=O)[O-])cc3)c(-c3ccccc3)nc2c1	-41	102	.	.
CCCc1nn2c(=O)cc(COC(=O)C3CCCCC3)nc2s1	.	108	91	93
CSc1nc2sc3c(c2c(=O)[nH]1)CC(C)(C)OC3	-5	.	93	89
Cc1ccc(-c2oc3ccccc3c(=O)c2O)cc1	-22	102	96	88
CCCN(CCC)S(=O)(=O)c1ccc(C(=O)N2CC3CCC(CC3)C2)cc1	-11	109	91	79
COc1ccc(CN2CCc3c(c(=O)n4ncc(C(=O)N5CCN(c6ccc(F)cc6)CC5)c4n3C)C2)cc1	.	105	93	89
COc1cc(NC(=O)c2nc3cc(C)c(C)cc3n(C)c2=O)cc(OC)c1OC	-20	105	115	90
COc1ccc(CCNC(=O)C(=O)NCC(c2cccs2)S(=O)(=O)c2cccs2)cc1 (stereo unspecified)	.	102	131	90
C=CCn1c(SCC(=O)Nc2ccc(F)cc2)nc2scc(-c3ccc(F)cc3)c2c1=O	-8	96	.	.
Cc1ccc(N=Cc2c(N3CCCC3)nc3c(C)cccn3c2=O)cc1C	-67	.	104	93
CCc1cccc(C)c1Nc1c(-c2ccccc2)nc2sccn12	-20	101	94	79
Cc1nn2c(C(F)(F)F)cc(-c3ccncc3)nc2c1-c1ccc(Cl)cc1	-22	104	.	.
O=C(CSc1nnc(-c2ccco2)o1)NCC(=O)c1ccccc1	1	100	98	94
Cc1ccc2oc(-c3cc(NC(=O)c4ccc(C(C)(C)C)cc4)ccc3OC(=O)c3ccc(C(C)(C)C)cc3)nc2c1	-13	101	.	.
O=C(CSc1ncnc2nc(N3CCSCC3)sc12)Nc1ccc(Br)cc1	3	103	.	.
CC(=O)c1cc(-c2ccccc2)n(CCC(=O)NCc2ccc(C)cc2)c1C	.	103	104	91
C=CCN1CCN(C2CCN(S(=O)(=O)c3ccc(C(C)C)cc3)CC2)C(=O)C1=O	-8	103	.	.
O=C(C1CCN(c2nn3cc(-c4ccc(F)cc4)nc3s2)CC1)N1CCN(c2ccccc2)CC1	-5	102	.	.
C=CCNCc1ccc(OCc2ccc3c(c2)n(C)c(=O)n3C)c(OC)c1	-7	101	.	.
COC(=O)C(C)(C)Sc1nnc2c(n1)[nH]c1c(C)cc(C)cc12	-23	99	108	84
O=C(Nc1ccc(N2Cc3ccccc3C2)cc1)c1ncoc1-c1cccs1	-6	105	99	55
Cc1cc(C(=O)NCCCN2CCN(c3ccccc3F)CC2)n(-c2ccccc2)n1	.	100	90	94
COc1ccc(N2C(=O)CCC2(C(N)=O)c2ccccc2)cc1 (stereo unspecified)	-8	103	101	72
CCCCN(CC)C(=O)C1CCCN(c2nc3cccnc3s2)C1 (stereo unspecified)	-7	108	.	.

Full records from above. Order of screens: HCMV UL50-53 inh | GIV-Gai inh | Sa growth 42C | Sa growth 42C second temp
`O=c1c2cc(-c3ccccc3)sc2[nH]c(=S)n1Cc1ccco1` as listed: -2 | . | 31 | 20
`CC(=O)c1cc(-c2ccccc2)n(CCC(=O)NCc2ccc(C)cc2)c1C` as listed: . | 103 | 104 | 91
`Cc1ccc2c(c1Br)/C(=N/N1C(=O)c3ccccc3C1=O)C(=O)N2` as listed: -54 | . | 92 | 48
`COc1ccc(CN2CCc3c(c(=O)n4ncc(C(=O)N5CCN(c6ccc(F)cc6)CC5)c4n3C)C2)cc1` as listed: . | 105 | 93 | 89
`C/C=C/C(=O)Nc1ccccc1Br` as listed: -10 | 103 | 92 | 99

Returning to the listing; the two compounds before the break are reprinted first.
SMILES	HCMV UL50-53 inh	GIV-Gai inh	Sa growth 42C	Sa growth 42C second temp
COc1ccc(N2C(=O)CCC2(C(N)=O)c2ccccc2)cc1 (stereo unspecified)	-8	103	101	72
CCCCN(CC)C(=O)C1CCCN(c2nc3cccnc3s2)C1 (stereo unspecified)	-7	108	.	.
Cc1cccc(-c2nc(CS(=O)CC(=O)N3CCCCC3)c(C)o2)c1 (stereo unspecified)	-7	96	109	91
COc1cccc(NC(=O)Cn2ccc3c(OC)cccc3c2=O)c1	-24	98	98	88
COc1ccc(CCC(=O)NCCc2csc3nc(-c4ccccc4C)nn23)cc1	-21	100	.	.
COc1ccc(-c2cn3nc(N4CCC(C(=O)NCc5ccc(F)cc5)CC4)sc3n2)cc1	.	109	108	86
COc1ccc(C2CC(c3c(O)n(C)c(=S)n(C)c3=O)=NN2C(C)=O)c(OC)c1 (stereo unspecified)	0	124	.	.
Cc1cc(C)n2nc(SCC(=O)Nc3ccc(C(C)C)cc3)nc2n1	3	106	108	69
COc1ccc(-c2cc(-c3nnc(COC(=O)CC4CCCC4)o3)c3ccccc3n2)cc1OC	-8	.	101	86
O=C(O)C1(N2CCCCC2)CCCCC1	-25	99	94	80
CC(=O)N1c2ccc(S(=O)(=O)N(C)CC(=O)N(C)Cc3ccccc3)cc2CC1C (stereo unspecified)	.	102	99	87
O=C(OCc1cc(=O)oc2cc(O)ccc12)c1cc(=O)[nH]c2ccccc12	-51	.	87	81
CCN(CC)CCOC(=O)c1cc(Cl)c(N)cc1OC	-4&-21	100	.	.
Cc1nnc(SCC(=O)N(CC(C)C)CC(C)C)[nH]c1=O	-25	.	99	89
Cc1ccc(NC(=O)/C=C/c2ccccc2)c(Br)c1	-6	101	105	105
CC(Nc1ccc2c(c1)OCCO2)C(=O)N1CCCC1 (stereo unspecified)	-28	.	102	88
COc1ccc(Cl)cc1NC(=O)NCC(c1cccnc1)c1c[nH]c2ccccc12 (stereo unspecified)	-24	96	.	.
COc1cc(N2CCn3c(nc4ccccc43)C2)ccc1NC(=O)NC1CCCCC1	-7	105	.	.
CCCN(C(=O)c1cc2c(s1)-c1c(C)cccc1OC2)c1cccc(Cl)c1	.	103	108	88
CNc1cc(=O)n(-c2ccccc2)c(=O)n1-c1ccccc1	-21	102	93	87
COc1cccc2sc(N3CCCC3)nc12	10	104	101	93
Clc1ccccc1CN1CCc2nc(N3CCN(c4ncccn4)CC3)ncc2C1	.	107	81	69
CCCN(C(=O)COc1cc(=O)n(C)c2ccccc12)c1ccccc1C	3	96&105	106	89
Cc1cc(C)n2nc(CN(C(=O)C(C)C)c3cccc(Cl)c3)nc2n1	-7	108	.	.
Cn1ccnc1S(=O)(=O)/C(C#N)=C/c1ccc2c(c1)OCO2	-15	110	96	92
COCCNC(=O)CN1CCN(c2cc(C(=O)O)c3cc(NC(=O)C4CCC4)ccc3n2)CC1	-21	112	.	.
COc1cccc(-c2cc(C(=O)N3CCN(c4ccc(N5CCOCC5)nn4)CC3)[nH]n2)c1	-11	101	.	.
NS(=O)(=O)c1ccc(NC(=O)CSc2ncccn2)cc1	-18	.	91	80
Cc1cc(-c2nc(C(=O)O)cs2)no1	0	99	101	92
N#CCSC1=NS(=O)(=O)c2ccccc2N1	-23	105	92	86
Cc1cc2nn(-c3ccc(Cl)cc3)nc2cc1NC(=O)c1ccco1	.	104	73	79
CCn1c(=O)c2ccccc2n(CC(N)=O)c1=O	-4	99	107	90
CC(C)Nc1nc2ccccc2n2cnnc12	6	102	97	88
C=CCN1C(=O)c2oc3ccccc3c(=O)c2C1c1ccccc1 (stereo unspecified)	0	100	98	96
COc1ccc(OC)c(NC(=O)N2CCN(Cc3nc4ccc(C)cc4o3)CC2)c1	.	100	88	86
O=C(O)c1ccccc1C(=O)NCC1COc2ccccc2O1 (stereo unspecified)	.	101	128	88
CCOC(=O)COc1ccc2cc(-c3nc4ccccc4[nH]3)c(=O)oc2c1	-26	102	90	82
CC(Sc1nc(NC(C)(C)C)nc(N(C)C)n1)C(=O)Nc1ccccc1 (stereo unspecified)	-3	103	121	78
COc1ccc(C=NNC(=O)C(C)n2cnc3ccccc3c2=O)cc1 (stereo unspecified)	-66	107	92	83
CCn1c(=NC(=O)C(C)C)sc2cc(Br)ccc21	-5	109	102	88
CN(C)c1ccc(C2CC(=O)C3=C(C2)Nc2ccccc2NC3c2cccnc2)cc1 (stereo unspecified)	.	107	94	100
CC(=O)NCc1ccc(C(=O)COC(=O)c2ccc(C#N)cc2)o1	-6	.	76	84
CCOC(=O)c1cc2sc(C)cc2n1CC	8	105	92	97
Nc1ccc(Cn2cnc(-c3nc(-c4ccc(F)cc4)no3)c2)cc1	-15	106	.	.
O=c1cc2nc(-c3ccccc3F)nc(SCc3ccc(Br)cc3)n2[nH]1	.	102	85	81
O=C(c1cc(-c2cccs2)on1)N1CCCC1	-48	100	98	86
CCCCC(=O)Nc1c(C(=O)OCC)[nH]c2ccccc12	-20&-26	104	.	.
O=C(NCO)c1ccccc1Cl	-25	97	96	106
O=C(c1cccnc1)N(c1ccc(F)cc1)c1nc2ccccc2s1	-26	.	130	84
Cc1nc2ccccc2n1CC(=O)OCC(=O)c1cccc(Cl)c1	-42	.	119	85
COc1ccc(CCNC(=O)c2cnc3sc(N4CCCC4)nn3c2=O)cc1OC	.	107	106	88
Cc1cc(C)c(O)c(C2(O)C(=O)c3ccccc3C2=O)c1	1	99	102	98
COc1cc(C(=O)Nc2ccc3nc(N4CCN(C)CC4)cc(C)c3c2)cc(OC)c1OC	.	102	102	89
Nn1c(SCC(=O)N2CCCc3ccccc32)nncc1=O	-30	107	101	85
COc1ccccc1CNC(=O)CN1C(=O)CCCc2ccccc21	.	105	117	102
Cc1cc(O)c2c(C)c(CC(=O)NCc3ccccc3Cl)c(=O)oc2c1	-34	96	99	84
C=CC1OC2CCCCC2C2=CCCCC21 (stereo unspecified)	-18	101	91	80
O=C(Nc1cccnc1Cl)c1noc2c1CCCCC2	-23	100	89	88
O=C(CSc1nc2c([nH]c3ccccc32)c(=O)n1-c1ccc(F)cc1)NCc1ccccc1	.	103	119	82
Cc1ccc(C)c(S(=O)(=O)NCC(c2ccco2)S(=O)(=O)c2ccc(F)cc2)c1 (stereo unspecified)	.	103	114	90
C=C1SC(Nc2cc(C)cc(C)c2)=NC1(C)C	-6	104	86	75
O=C(O)COCC(=O)Nc1ccc2c(c1)OCCCO2	-16	99	94	95
O=C(CSCc1cccc(Br)c1)Nc1ccc2ccccc2c1	10	.	94	85
CCC(=O)Nc1ccccc1C(=O)OCc1cc(=O)n2cc(C)sc2n1	.	103	84	75

Bioassay records from PubChem.
